High-throughput results as filed in PubChem.
GLA inh pH 4.5: inhibitors of human alpha-galactosidase A at pH 4.5; P06280; purified enzyme, 4-MU-alpha-Gal fluorescence, pH 4.5; activity change, negative = inhibition, % at 105 µM; 230,000 tested, under 10 active; AID 1467; inconclusive = small, poorly fitted or top-dose-only inhibition, or a rising curve; inactive = flat fitted curve, though single readings scatter; no compound was filed as active;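 note: 0% = full activity with enzyme and -100% = basal without enzyme; dose as in the result columns while the protocol names 77 µM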
Target sequence (P06280 whole entry, looked up): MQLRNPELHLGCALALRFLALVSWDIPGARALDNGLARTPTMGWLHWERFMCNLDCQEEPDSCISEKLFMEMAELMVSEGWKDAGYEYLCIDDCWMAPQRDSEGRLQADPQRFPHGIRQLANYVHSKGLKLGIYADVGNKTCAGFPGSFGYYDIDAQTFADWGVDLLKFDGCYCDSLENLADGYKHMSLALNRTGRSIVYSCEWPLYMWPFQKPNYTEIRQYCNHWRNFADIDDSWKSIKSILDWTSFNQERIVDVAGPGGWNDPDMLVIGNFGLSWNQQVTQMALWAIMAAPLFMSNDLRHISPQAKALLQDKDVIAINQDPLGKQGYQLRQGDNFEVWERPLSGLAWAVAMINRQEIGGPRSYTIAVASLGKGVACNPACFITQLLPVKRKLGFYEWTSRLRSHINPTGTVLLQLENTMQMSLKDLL
miR-21 FLuc: raises the signal of a miR-21 reporter | HeLa miR-21 FLuc reporter, luciferase, 48 h | 340,000 tested, under 10 active | Potency, µM (titrated, usually from 38.3 µM), inactives show at the highest dose reporter change, positive = more light; active = well fitted rising curve with a large enough effect; inconclusive = small, poorly fitted or top-dose-only effect; inactive = no such curve, though single readings can be large or run the other way;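 note: % of control where 0% means no effect; miR-21 action dims this reporter so a rising signal means less miR-21 action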
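Compounds were titrated across several concentrations (up to approximately 40 uM) and incubated 48 hours with HeLa miR-21-FLuc reporter cells (miR-21 target sequence downstream of FLuc, endogenous miR-21). Readout was firefly luciferase luminescence after lytic detection reagent.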
Rango-impB inh: inhibitors of Rango-importin beta complex formation; Q14974; Rango CFP/YFP FRET sensor + importin beta, 45 min; Potency, µM (series often up to 92.2 µM), for inactives: top-dose inhibition of complex formation; 340,000 compounds, 0.031% hits; active = rising FRET ratio curve, often small or poorly fitted; inconclusive = mostly compound fluorescence or quenching in the first reads; inactive = flat curves in all reads;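 note: potency is the fitted concentration of half-maximal effect; 0% = DMSO wells and 100% = buffer wells lacking importin beta; nearly all actives have a fitted effect of over 15% in size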
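FRET biosensor (snurportin 1 IBB flanked by EYFP and cerulean), 50 nM, with compound 5 min, then 0.125 microM importin beta in PBS, 1 mM DTT, 0.02% Tween-20, 0.1% BSA. CFP/YFP ratio read after 45 min at room temperature; pre-read flags interference.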
Rango release inh: prevents RanGTP from dissociating the Rango-importin beta complex; O95149+P62826; Biochemical FRET Rango-importin beta, RanGTP-induced dissociation; Potency, µM (highest dose often 46.1 µM), inactives show at the highest dose activity change, negative = inhibition; 340,000 compounds, 0.071% hits; active means falling FRET ratio curve, often poorly fitted, with flat reads before Ran was added; inconclusive means other falling curves, or compound fluorescence or quenching; inactive means flat or rising ratio curve;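 note: potency is the fitted concentration of half-maximal effect; % of control where 0% means no effect; nearly all actives have a fitted effect of over 45% in size; -100% = wells without RanGTP and RCC1; the record marks most hits as doubtful in a second field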
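Compounds preincubate 5 min with complex of recombinant Rango and importin beta in PBS with 1 mM DTT. Ran (0.6 uM) loaded with 2 mM GTP plus 0.2 uM RCC1 starts dissociation; FRET is recorded 45 min later.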
The depositor's hits bear a star; u = inconclusive; x = no result given; & = joins results of further samples. A portion of the library; rates above refer to the full screens.

# | Rango-impB inh | miR-21 FLuc | canonical_smiles | GLA inh pH 4.5 | Rango release inh
1 | 10% | 0% | COc1ccc(Cl)cc1-n1c(C)cc(C(=O)OCC(=O)N2CC(=O)Nc3ccccc32)c1C | -14 | -22%
2 | 2.4% | -31% | CCn1c(NCc2cc(OC)ccc2OC)nc2ccccc21 | -1 | -12%
3 | 4.7% | x | Cc1ccc(C(=O)OCC(=O)Nc2ccc3c(c2)OCCO3)cc1C | x | -6%
4 | -1.2% | -5% | CC1CCN(C(=O)CCc2nnc3ccc(NCCCN4CCCC4=O)nn23)CC1 | x | 0%
5 | -0.1% | -2% | COc1ccc(CN2C(=NC(=O)C3CCCO3)SC3CS(=O)(=O)CC32)cc1 (stereo not given) | x | 9%
6 | -4.1% | -15% | CCOC(=O)c1ccc2c(c1)nc(SCC(=O)N1CCCCC1)n2CC | 5 | 1%
7 | 2.7% | -4% | Cc1cccc(OCC(O)CN2C(C)(C)CC(O)CC2(C)C)c1 (stereo not given) | 9 | 6%
8 | 3.4% | x | CCc1sc(C(=O)N2CCc3cc(OC)c(OC)cc3C2CC(=O)O)cc1C (stereo not given) | x | -1%
9 | 0.5% | x | O=C(CN1CCN(S(=O)(=O)c2ccc(F)cc2)CC1)Nc1ccnn1C1CCCC1 | x | -7%
10 | 1.7% | -2% | Cc1ccc(-c2noc(CCCN3C(=O)c4ccccc4C3=O)n2)cc1 | -4 | 2%
11 | u | x | CC1CN(C(=O)COC(=O)c2cnc(Cl)c(Cl)c2)CC(C)O1 (stereo not given) | x | -5%
12 | u | -11% | COc1ccc(NC(=S)Nc2ccccc2C(F)(F)F)cc1 | 15 | -10%
13 | 2.7% | x | COc1ccc(N2CCN(Cc3cc(=O)c(OCC(=O)Nc4ccccc4)co3)CC2)cc1 | x | 0%
14 | -2.1% | -3% | CCC(C)NC(=O)CN(c1ccc2c(c1)OCO2)S(=O)(=O)c1c(C)n[nH]c1C (stereo not given) | 0 | 9%
15 | -2.7% | 1% | Cc1ccc(/C=N/NC(=S)NC2CCS(=O)(=O)C2)cc1 (stereo not given) | 7 | -4%
16 | -5.4% | x | CC1CCC2(CC1)NC(=O)N(CC(=O)N1CCN(C(=O)c3cccs3)CC1)C2=O (stereo not given) | x | -16%
17 | -0.9% | 1% | O=C(CCN1C(=O)/C(=C/c2ccc(F)cc2)SC1=S)Nc1cc([N+](=O)[O-])ccc1O | x | u
18 | -1.1% | x | O=C(CN1C(=O)NC2(CCOc3ccccc32)C1=O)c1ccc(Cl)s1 (stereo not given) | x | 1%
19 | 0.0%&-1.9% | 24%&19% | c1cnc2c(c1)ccc1cccnc12 | -7&-1 | 5%&3%
20 | 4.0% | -50% | Cc1ccc(S(=O)(=O)Oc2ccc(C)cc2/C=N/N=C2\NC(=O)C(C)S2)cc1 (stereo not given) | -19 | -1%
21 | -4.7% | x | O=C(CS(=O)(=O)c1ccccc1)Nc1nnc(-c2cccs2)o1 | x | 1%
22 | u | 1% | N=C(N)SCc1ccc(O)c([N+](=O)[O-])c1 | -5 | 0%
23 | -1.4% | 4% | COc1ccc(OC)c2sc(NC(=O)c3ccc(S(=O)(=O)N(C)C)cc3)nc12 | -2 | 0%
24 | -4.1% | -7% | CCC12CN3CCN(CC(C3)/C1=N\NC(=O)c1ccc(Cl)cc1)C2 | 0 | 32%

A second format for 5 compounds above:
entry | Molecule | Rango-impB inh | miR-21 FLuc | GLA inh pH 4.5 | Rango release inh
19 | c1cnc2c(c1)ccc1cccnc12 | 0.0%&-1.9% | 24%&19% | -7&-1 | 5%&3%
15 | Cc1ccc(/C=N/NC(=S)NC2CCS(=O)(=O)C2)cc1 (stereo not given) | -2.7% | 1% | 7 | -4%
23 | COc1ccc(OC)c2sc(NC(=O)c3ccc(S(=O)(=O)N(C)C)cc3)nc12 | -1.4% | 4% | -2 | 0%
16 | CC1CCC2(CC1)NC(=O)N(CC(=O)N1CCN(C(=O)c3cccs3)CC1)C2=O (stereo not given) | -5.4% | x | x | -16%
14 | CCC(C)NC(=O)CN(c1ccc2c(c1)OCO2)S(=O)(=O)c1c(C)n[nH]c1C (stereo not given) | -2.1% | -3% | 0 | 9%

The results go on:
# | Rango-impB inh | miR-21 FLuc | canonical_smiles | GLA inh pH 4.5 | Rango release inh
25 | -0.3% | -6% | CCS(=O)(=O)N1CCN(S(=O)(=O)c2ccc(Cl)s2)CC1 | x | 3%
26 | -0.8% | 2% | CCCCS(=O)(=O)N1CCCC(C(=O)Oc2ccccc2OC)C1 (stereo not given) | x | 1%
27 | -1.5% | -5% | CCCCNC(=O)N1CCN(Cc2cccc(F)c2)CC1 | -4 | 11%
28 | -0.3% | -6% | CCCCNC(=O)N(O)C1N(/N=C/c2ccccc2O)C(=S)SC1(C)C (stereo not given) | x | 32%
29 | 3.3% | -1% | COc1ccccc1-n1cnnc1SCC(=O)Nc1nc(C)c(Cl)cc1Cl | -3 | 18%
30 | 4.1% | 5% | COc1cc2ccccc2cc1C(=O)N1CC(C)CC(C)C1 (stereo not given) | x | -12%
31 | 2.6% | x | C=CC[C@H](CC(=O)N[C@H](CO)Cc1ccccc1)C(=O)N[C@H](COC(=O)[C@@H](CC=C)Cc1ccc(F)cc1)Cc1c[nH]c2ccccc12 | x | 11%
32 | -2.7% | x | CN(C(=O)COC(=O)COc1ccc2c(c1)CCC2)c1c(N)n(Cc2ccccc2)c(=O)[nH]c1=O | x | -2%
33 | 0.9% | -2% | CCCc1nc2oc3c(NCc4ccccn4)ncnc3c2c2c1COC(C)(C)C2 | -6 | -9%
34 | -0.8% | -1% | COc1cc(CO)cc(Br)c1OCC(=O)O | 4 | -3%
35 | 1.5% | x | O=C(COC(=O)c1ccccc1O)NCC1COc2ccccc2O1 (stereo not given) | x | 1%
36 | -1.4% | -4% | CC(Sc1ccccc1)C(=O)N1CCN(S(=O)(=O)c2ccccc2F)CC1 (stereo not given) | x | -7%

Compound profiles (already shown). Order of values: Rango-impB inh | miR-21 FLuc | GLA inh pH 4.5 | Rango release inh
O=C(COC(=O)c1ccccc1O)NCC1COc2ccccc2O1 (stereo not given) is listed with 1.5% | x | x | 1%
CCCCNC(=O)N1CCN(Cc2cccc(F)c2)CC1 is listed with -1.5% | -5% | -4 | 11%
CC(Sc1ccccc1)C(=O)N1CCN(S(=O)(=O)c2ccccc2F)CC1 (stereo not given) is listed with -1.4% | -4% | x | -7%
CCCCNC(=O)N(O)C1N(/N=C/c2ccccc2O)C(=S)SC1(C)C (stereo not given) is listed with -0.3% | -6% | x | 32%
COc1cc(CO)cc(Br)c1OCC(=O)O is listed with -0.8% | -1% | 4 | -3%

Other records follow.
# | Rango-impB inh | miR-21 FLuc | canonical_smiles | GLA inh pH 4.5 | Rango release inh
37 | -2.1% | -72% | CCOc1ccc(/C=N/NC(=O)c2ccoc2C)cc1OC | x | -1%
38 | -0.8% | 3% | CC(=O)Nc1ccc(S(=O)(=O)Nc2ccccc2C(=O)N2CCCCCC2)cc1 | x | -20%
39 | 1.1% | -10% | Cc1cc(C)cc(C(=O)N2CCN=C2SCc2ccc([N+](=O)[O-])cc2)c1 | 3 | -15%
40 | 2.5% | 1% | CCc1ccc(NC(=O)NCC2CCN(c3ccc(OC)cc3)C2)cc1 (stereo not given) | -2 | 0%
41 | -1.7% | -4% | CCNC(=O)OCC12CC3CC(CC(C3)C1)C2 | 3 | 0%
42 | u | -5% | CC[C@@H](C)[C@H](NC(=O)Cc1c(C)c2c(cc(C)c3c(C)coc32)oc1=O)C(=O)O | x | 0%
43 | 2.1% | -5% | CCc1sc2nc(SCC(=O)Nc3cc(C)on3)n(-c3cccc(OC)c3)c(=O)c2c1C | -2 | 0%
44 | -1.2% | -4% | COC(=O)C1=C(C)N(c2ccc(OC)c(OC)c2)C(=O)C1 | 5 | 1%
45 | 0.1% | -6% | O=C(CSc1nc2c(cnn2-c2ccc(F)cc2)c(=O)[nH]1)N1CCCc2ccccc21 | -1 | -5%
46 | 5.7% | x | COc1cc(/C=C/c2onc(C)c2[N+](=O)[O-])cc(OC)c1OC | x | 2%
47 | 7.2% | -25% | CCOC(=O)C1(Cc2cccc(OC)c2)CCCN(C(=O)c2cc(C)oc2C)C1 (stereo not given) | x | 8%
48 | -0.1% | x | Cc1ccc(S(=O)(=O)N2CCn3cccc3C2C)cc1 (stereo not given) | x | u
49 | -0.6% | x | CCCCN(C(=O)CN1C(=O)C2CCCCC2C1=O)c1c(N)n(CCCC)c(=O)[nH]c1=O (stereo not given) | x | 8%
50 | 11% | 16% | N#C/C(=N\Nc1cccc(Cl)c1)C(=O)c1ccccc1 | -8 | 2%
51 | -3.1% | -1% | CC(C)c1ccc(NC(=O)CCNC(=O)N2CC(=O)Nc3ccccc32)cc1 | x | -12%
52 | -0.6% | 5% | CC(C)CN(CC(C)C)C(=O)CN1C(=O)NC2(CCCc3ccccc32)C1=O (stereo not given) | x | 1%
53 | 1.3% | -1% | Fc1ccccc1/C=N/Nc1nc(N2CCCCC2)nc(N2CCCCC2)n1 | 6 | 11%
54 | -1.3% | -37% | COc1ccc(Nc2cc(C)c3c(O)cccc3n2)cc1 | 0 | 6%
55 | -0.2% | -4% | CCOC(=O)NC(=S)Nc1cccc(NC(=S)NC(=O)OCC)c1 | 4 | 4%
56 | -3.7% | -5% | Cc1ccc(/C=N/n2c(C)nc3ccccc3c2=O)o1 | 2 | 2%
57 | 0.7% | x | CN(C(=O)COC(=O)c1ccc(F)c(S(=O)(=O)N2CCOCC2)c1)C1CCS(=O)(=O)C1 (stereo not given) | x | -13%
58 | u | -5% | N#CCC(=N)N1CCN(c2ccc(F)cc2)CC1 | -10 | -15%
59 | 2.6% | x | O=C(NCC1CCCO1)c1ccc(-c2ccccc2Cl)o1 (stereo not given) | x | 13%
60 | 0.2% | -2% | CCOc1ccccc1NC(=O)C(=O)/C=C(\O)c1cc(OC)ccc1OC | -4 | 7%
61 | -4.2% | 15% | CC(=O)N1C(C)c2ccccc2C(C)(C)CC12CCCCC2 (stereo not given) | 2 | 0%
62 | 1.8% | -50% | Cc1nc(N2CCCCC2)sc1C(=O)c1cccc([N+](=O)[O-])c1 | -28 | 11%
63 | -0.3% | x | Cc1ccc(CNC(=O)Cn2cnc(C(=O)Nc3ccc(C)c(C)c3)n2)o1 | x | 4%
64 | 0.1% | -14% | CC(=O)Nc1ccccc1-c1ccc(C)o1 | 1 | 4%
65 | -5.1% | 5% | OC(CNCc1ccc(F)cc1)(c1ccccc1)c1ccc(F)cc1 (stereo not given) | -19 | -6%
66 | -0.1% | -3% | Cc1ccccc1/C=C\c1nc(O)c([N+](=O)[O-])c(=O)[nH]1 | x | -6%
67 | u | -53% | Cc1cccc(N/C=C/C(=O)c2ccc(Cl)cc2)c1 | x | -24%
68 | 1.0% | x | COC(=O)CCCNC(=O)CCc1nnc(-c2ccc(-c3ccccc3)cc2)o1 | x | -6%
69 | -0.5% | 4% | CCOc1ccc(S(=O)(=O)NC(C)C(=O)NCc2ccncc2)cc1 (stereo not given) | x | 2%
70 | -5.6% | -10% | Cc1c(C(=O)N(C)C)sc(NC(=O)c2cc([N+](=O)[O-])cc([N+](=O)[O-])c2)c1C#N | -6 | 7%
71 | -2.0% | x | Cc1ccccc1-c1nnn(CC(=O)NC(=O)NC2CCCC2)n1 | x | 1%
72 | -3.3% | -3% | Cc1ccccc1-n1c(SCC(=O)NCc2cccs2)nnc1-c1ccncc1 | 0 | -4%
73 | 6.8% | -1% | COc1cccc(CCNC(=O)C2CCC(=O)N(Cc3cccc(OC)c3)C2)c1 (stereo not given) | x | 24%
74 | 6.4% | -10% | Cc1cc2oc(=O)cc(CN3CCN(S(=O)(=O)c4ccc5c(c4)OCCO5)CC3)c2cc1C | 6 | 1%
75 | x | -6% | CCn1c(C)nc2cc(C(=O)n3cc(C(=O)c4ccccc4O)cn3)ccc21 | 6 | x
76 | -1.7% | -5% | Cc1cc(=O)oc2cc(NC(=O)CCCC(=O)O)ccc12 | -4 | 12%
77 | -1.7% | 12% | CS(=O)(=O)N1CCN(c2ccccc2NC(=S)NC(=O)c2cccs2)CC1 | -2 | 5%
78 | 1.8% | -3% | Nc1ccc2c(c1)C(=O)N(CCCCCC(=O)O)C2 | 1 | 2%
79 | 6.4% | -7% | C/C(Cl)=C/Cn1c(SCc2ccc(Cl)cc2)nc2c1c(=O)[nH]c(=O)n2C | 8 | 8%
